PK Bst: Pyruvate Kinase | partly purified Bacillus stearothermophilus pyruvate kinase, luminescence ATP production; ribose 5-phosphate activator present at AC10 | Potency, µM | hit rate 1.2% among 51,000 | AID 361, 2006; in the data active means potency below about 11 µM; inconclusive means mostly about 12 µM to 25 µM; inactive means weaker than that;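 the screen sought inhibitors and activators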;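 further: potency means the concentration at half of the fitted maximal effect; scaled between full activation by ribose 5 phosphate and full inhibition by luteolin; about four in five hits inhibit and the cells do not say which; series up to 57 µM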
YjeE inh: qHTS Assay for Inhibitors of YjeE. tRNA threonylcarbamoyladenosine biosynthesis protein TsaE (Escherichia coli (strain …. purified YjeE, fluorescence polarisation of a bound ADP probe. Potency, µM. hit rate 0.05% among 71,000. AID 605, 2007; active = well fitted falling curve; inconclusive = weaker or top-dose-only fall, or a rising curve; inactive = flat or poorly fitted curve;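 further: top concentration of the series not given in the record; excess ADP was the control for the full effect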
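Fluorescence polarization of a BODIPY Texas Red–ADP probe (2 uM) bound to purified YjeE (10 uM) was read after 15 min room-temperature incubation with compounds. Loss of polarization marks inhibitors; ADP serves as titrated control.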
Active calls of the source: *; i = inactive; ? = inconclusive; nt = not tested or not shown. Some of the compounds tested; rates above refer to the full screens.

entry	SMILES	PK Bst	YjeE inh
1	O=C(CSc1nc2ccccc2s1)NC(=O)NCc1ccco1	>57	i
2	COc1ccc(N2C3=[N+](CC2(C)O)c2ccccc2CC3)cc1 (stereo not drawn)	>57	i
3	CC1(C)CC(=O)C=C(Nc2ccccn2)C1	>57	i
4	Cc1ccc(Cn2nnc3c(=O)n(CC(=O)c4ccccc4)cnc32)cc1	nt	i
5	CCOC(=O)C(C(=O)Nc1cccc(C)n1)C1CCCCC1 (stereo not drawn)	nt	i
6	Cc1c(F)cccc1NS(=O)(=O)c1ccccc1C#N	>57	i
7	COc1ccc(C2CC(C(F)(F)F)n3nc(C(N)=O)c(Cl)c3N2)cc1OC (stereo not drawn)	>57	i
8	C[N+]1=C2CCCCCN2C(O)(c2ccccc2)C1 (stereo not drawn)	>57	i
9	CC1(C)Cc2ccccc2-c2nnc(SCC(=O)Nc3nc4ccccc4s3)n21	>57	i
10	COc1ccc(CCNC(=O)CSc2nnc(-c3ccc(F)cc3)o2)cc1OC	>57	i
11	COC(=O)CSc1nc(N)c(C#N)c(C(C)C)c1C#N	>57	i
12	Cn1c(C(=O)N2CCN(c3ccccn3)CC2)cc2c(=O)n(C)c3ccccc3c21	nt	i
13	O=C(CCC1CCCC1)N1CCN(C(=O)COc2ccccc2)CC1	nt	i
14	CCCn1c(-c2ccc(F)cc2)nc2c(NCCN3CCCC3)nc(C)nc21	nt	i
15	Cc1ccc2c(CC(=O)N3CCN(S(=O)(=O)c4ccc5c(c4)OCCO5)CC3)coc2c1	>57	i
16	COc1cccc(CN(C)C(=O)c2ccc(S(=O)(=O)N3CCCC3)cc2)c1OC	>57	i
17	c1ccc(-c2ncnc3nc4n(c23)CCC4)cc1	>57	i
18	Oc1cc(Cc2ccccc2)cnc1CN1CCCCC1	nt	i
19	CN(C)S(=O)(=O)c1cccc(C(=O)OCC(=O)Nc2sccc2C(N)=O)c1	>57	i
20	CCC(=O)N1CCCc2cc(S(=O)(=O)N3CCN(C4CCCCC4)CC3)ccc21	>57	i
21	Cc1cccc(NC(=O)N2CCC(NC(=O)c3ccccc3C)CC2)c1	>57	i
22	CCCCC#Cc1nc(NC)c2ncn([C@@H]3O[C@@H](CO)[C@H](O)[C@H]3O)c2n1	nt	i
23	COc1ccc(NC(=O)c2c(OC)cccc2OC)c(OC)c1	>57	i
24	Cc1cc(=S)[nH]c2ccccc12	>57	i
25	O=C(O)c1cc2c(s1)-c1ccccc1OC2	>57	i

Next section:
entry	SMILES	PK Bst	YjeE inh
26	CS(=O)(=O)Nc1cccc(-c2cncnc2NCc2cccnc2)c1	nt	i
27	CC(C)(C)c1cc(=O)n2c(C#N)c(C#N)nc2[nH]1	>57	i
28	CCOC(=O)C(NC(C)=O)C(OC(C)=O)c1cccc(N(CCO)CCO)c1 (stereo not drawn)	>57	i
29	CCC(Oc1ccccc1)C(=O)Nc1nnc(C)s1 (stereo not drawn)	>57	i
30	O=C(CSc1ncccn1)NC(=O)NCc1ccccc1	>57	i
31	CC(C)OC(=O)CSc1nnc(-c2cnccn2)n1C	>57	i
32	CN1CCN(C(=S)c2ccc(N(C)C)cc2)CC1	>57	i
33	Oc1c(C(c2ccco2)N2CCOCC2)sc2ncnn12 (stereo not drawn)	nt	i
34	CC1(C)Cc2nc3sc4c(N(CCO)CCO)ncnc4c3cc2CO1	>26	nt
35	O=C(Nc1ccc(S(=O)(=O)NCc2ccccc2)cc1)Nc1ccc2c(c1)OCO2	>57	i
36	O=C(C/C(=N/O)c1ccccc1O)C(F)F	>11	nt
37	O=C(CN1C(=O)CCC1=O)Nc1nc(-c2ccccn2)cs1	nt	i
38	CC(=O)Nc1ccc(C(=O)CSc2nnc3scc(-c4ccccc4)n23)cc1	>57	i
39	Cc1ccc2nc(N3CCN(C)CC3)c(C#N)cc2c1	>57	i
40	O=C(NCN1CCCCC1)c1cnccn1	>57	i
41	COc1cc(Br)cc(CN2CCN(C=O)CC2)c1O	nt	i
42	CC1CCCCC1NC(=O)C1CCN(S(=O)(=O)c2ccc3c(c2)CCC(=O)N3)CC1 (stereo not drawn)	nt	i
43	COCC(=O)N(C)c1nnc(-c2cnc(C)cn2)s1	>57	i
44	Cc1cccc(CNc2cc(-c3cccnc3)ncn2)c1	nt	i
45	Fc1ccc(CSc2nncn2NCc2ccc3c(c2)OCO3)cc1	>57	i
46	CCN(CC)CCCN(Cc1cc2cc3c(cc2[nH]c1=O)OCO3)C(=O)Nc1ccccc1OC	>57	i
47	CC(C)N(CCc1ccncc1)C(=O)Nc1ccc(F)cc1	nt	i
48	C=CCn1c(SCC(=O)NC2CCCCC2)nnc1-c1ccc(OC)cc1	nt	i
49	Cc1ccc(S(=O)(=O)N2CCN(C(=O)N3CCOCC3)C2C)cc1 (stereo not drawn)	>57	i
50	CN1CCN(c2ncc3nc(-c4cccs4)c(=O)n(CCc4ccccc4)c3n2)CC1	nt	i

Carrying on:
entry	SMILES	PK Bst	YjeE inh
51	Cc1noc(C)c1S(=O)(=O)Nc1ccc(C(=O)NC2CCCCC2C)cc1 (stereo not drawn)	>57	i
52	COc1ccc(OC)c(NC(=O)Cn2cc(C#N)c3ccccc32)c1	>57	i
53	COc1cc(C2C(C(C)=O)=C(O)C(=O)N2CCc2c[nH]c3ccccc23)ccc1O (stereo not drawn)	>57	i
54	Cc1cc(C)n(/N=C/c2c[nH]c3ccccc23)c(=O)c1	nt	i
55	CC(C)(C)NCCCCOc1ccc(F)cc1	nt	i
56	COc1ccccc1C1C2C(=O)N(c3ccccc3)C(=O)C2ON1c1ccccc1 (stereo not drawn)	>57	i
57	CCCS(=O)(=O)N1CCCC(C(=O)NCc2ccc(C)cc2)C1 (stereo not drawn)	>57	i
58	COc1cccc(NC(=O)CSc2nnnn2C(C)C)c1	>57	i
59	CCC1SC2=NC(C)=C(C(=O)OC)C(c3ccc(C)cc3)N2C1=O (stereo not drawn)	>57	i
60	Cn1c(=O)c2c(-c3ccccc3)n3c4ccccc4ncc3c2n(C)c1=O	>57	i
61	CC1(C)Cc2c(c(N3CCOCC3)nc3sc4c(NCc5ccco5)nnnc4c23)CS1	>26	nt
62	COC(=O)CC1C(=O)NCCN1C(=O)CSc1nnc(Nc2ccc(OC)cc2)s1 (stereo not drawn)	nt	i
63	N#Cc1c(NC(=O)CCn2cnc3ccccc3c2=O)oc(-c2ccccc2)c1-c1ccccc1	>57	i
64	Cc1oc2ccc(OC(=O)N3CCOCC3)cc2c1C(=O)OC(C)C	nt	i
65	COc1cccc(-c2nnc(SCc3ccc(C#N)cc3)n2Cc2ccco2)c1	>57	i
66	O=S(=O)(c1ccccc1)N1CCC2(CCN(Cc3ccccc3)CC2)CC1	nt	i
67	O=c1[nH]c2cc3c(cc2cc1CN(Cc1nnnn1CC1CCCO1)C1CCCCC1)OCO3 (stereo not drawn)	>57	i
68	CC1(C)CC2(CC(C)(C)NC(=O)N2)NC(=O)N1	>57	i
69	Clc1cc(Cl)c(Cl)cc1Cl	nt	i
70	O=C1C2=C(Nc3cc([N+](=O)[O-])ccc3N2)O[C@@H]1c1c[nH]c2ccc(COc3ccccc3)cc12	nt	i
71	O=C(Nc1nc2c(s1)CCCC2)c1ccc2ncsc2c1	nt	i
72	COc1ccc(/C=N/n2cc(-c3ccc(OC)cc3)nc2N)cc1	nt	i
73	CC(=O)Nc1cccc(NS(=O)(=O)c2cccc3nsnc23)c1	>57	i
74	N#Cc1nc(N)nc(N(c2ccccc2)c2ccccc2)n1	>57	i
75	CC(CN1CCOCC1)OC(=O)c1ccc(Br)cc1 (stereo not drawn)	?	i

Following part
entry	SMILES	PK Bst	YjeE inh
76	O=C1c2ccccc2-c2c1cccc2C(=O)N(CCO)CCO	nt	i
77	c1ccc(Cn2c(-c3ccco3)nc3nc4ccccc4nc32)cc1	>57	i
78	CC(C)(C)c1ccc(C(=O)NCCC(=O)NCc2ccco2)cc1	>57	i
79	CSCC[C@H](NC(=O)NCc1ccc(F)cc1)C(=O)O	>57	i
80	Cc1ccc(S(=O)(=O)N2CCN(c3nc(C(C)C)c4c(c3C#N)CC(C)(C)OC4)CC2)cc1	>26	nt
81	Cc1ccc(S(=O)(=O)N2CCN(C(=O)C3CCCCC3)CC2)cc1	>57	i
82	Cc1nnc(C)c2c(C)n(C(C)c3ccccc3)c(C)c12 (stereo not drawn)	>57	i
83	CS(=O)(=O)N(CC(=O)N1CCCCC1)c1ccc2c(c1)OCO2	>57	i
84	CCN(CC)CCCN1C(=O)C(=O)/C(=C(/O)c2ccc(Cl)cc2)C1c1ccccn1 (stereo not drawn)	>26	nt
85	O=C(O)c1ccc(Cl)c(S(=O)(=O)NCc2ccco2)c1	>57	i
86	CCOC(=O)C1CCN(C(=O)c2ccc(SC)cc2OC)CC1	>57	i
87	Cc1cc(OC(=O)N2CCOCC2)cc(C)c1Cl	>57	i
88	CC(C)(C)N(Cc1ccccc1)C(=O)c1ccc2c(c1)OCCO2	>57	i
89	COc1ccc(CCNC(=O)Cn2nnc(-c3cccs3)n2)cc1OC	>57	i
90	C=CCN(C(=O)CSc1nc2[nH]ncc2c(=O)n1-c1ccccc1OC)c1ccccc1	>57	i
91	Nc1ccc(S(=O)(=O)Nc2ccc(S(N)(=O)=O)cc2)cc1	>57	i
92	COC(=O)c1ccc(C(NC(=O)OCc2ccccc2)/C(F)=C/[C@@H](C)C(=O)NCc2cccnc2)cc1 (stereo partly drawn)	nt	i
93	CC(=O)N1CCc2cc(S(=O)(=O)CCC(=O)Nc3c(C)n(C)n(-c4ccccc4)c3=O)ccc21	>57	i
94	CCCNC(=O)NC(=O)CN1C(=O)NC(C)(c2ccc(C)cc2)C1=O (stereo not drawn)	>57	i
95	CN1CCCC(OC(=O)CCCC(=O)OC2CCCN(C)C2)C1 (stereo not drawn)	>57	i
96	CC(O)c1n(C)c(Cl)c[n+]1C (stereo not drawn)	>26	nt
97	CCCCc1c(O)nc(SCCN(C)C)n(-c2ccccc2)c1=O	>26	nt
98	COc1ccccc1S(=O)(=O)Cc1ccc(C(=O)NCc2cccs2)o1	>57	i
99	CCOC(=O)c1cc(NC(=O)C2CCCO2)cc(C(=O)OCC)c1 (stereo not drawn)	>57	i
100	CCNc1ncc2nc(-c3ccc(OC)cc3)c(=O)n(Cc3cccs3)c2n1	nt	i

Fetched by structure from above (5):
entry	SMILES	PK Bst	YjeE inh
96	CC(O)c1n(C)c(Cl)c[n+]1C (stereo not drawn)	>26	nt
84	CCN(CC)CCCN1C(=O)C(=O)/C(=C(/O)c2ccc(Cl)cc2)C1c1ccccn1 (stereo not drawn)	>26	nt
19	CN(C)S(=O)(=O)c1cccc(C(=O)OCC(=O)Nc2sccc2C(N)=O)c1	>57	i
33	Oc1c(C(c2ccco2)N2CCOCC2)sc2ncnn12 (stereo not drawn)	nt	i
3	CC1(C)CC(=O)C=C(Nc2ccccn2)C1	>57	i

Next section
entry	SMILES	PK Bst	YjeE inh
101	OC[C@@H]1O[C@@H](n2cnc3c(SCc4ccccc4)ncnc32)[C@@H](O)[C@H]1O	nt	i
102	COc1ccc(-n2c(C)nc3c(cnn3-c3ccccc3)c2=O)cc1	>57	i
103	CCc1cc2c(=O)n(N)c(CCC(=O)O)nc2s1	nt	i
104	O=C(NCc1cccs1)c1cccc(S(=O)(=O)N2CCCCC2)c1	>57	i
105	CC(=NC1CCN(Cc2ccccc2)CC1)c1c(O)[nH]c(=O)[nH]c1=O	>57	i
106	CCC1=NC(c2ccc(OC)cc2OC)N(O)C1(C)C (stereo not drawn)	>57	i
107	Cn1c(SCC(=O)c2ccccc2F)nnc1C1CC1	>57	i
108	COc1ccc(Nc2nc3c(c(=O)n(C)c(=O)n3C)n2CCO)cc1	>57	i
109	COc1ccc(OC)c(NC(=O)Nc2nnc(N3CCC(C)CC3)s2)c1	nt	i
110	O=C(Nc1ccccc1C(=O)NC(Cc1c[nH]c2ccccc12)C(=O)O)c1ccco1 (stereo not drawn)	nt	i
111	Cn1c(=O)c2c(SCC(=O)c3ccccc3)nc(C3CC3)nc2n(C)c1=O	nt	i
112	COCCn1c(C(=O)N2CCCC2)cc2c1C[C@H]1CN(C(=O)c3ccccc3)[C@@](Cc3ccccc3)(C(=O)OC)[C@@H]21	nt	i
113	Cc1ccc(S(=O)(=O)N(C)c2ccc(NS(C)(=O)=O)cc2)cc1	nt	i
114	COc1ccccc1CNc1ncncc1-c1ccc(C(=O)N(C)C)cc1	nt	i
115	COc1nc2ccc(C)cc2cc1-c1noc(-c2cccnc2)n1	>57	i
116	Cc1cc(C)n(-c2nnc(C)c(=O)[nH]2)n1	nt	i
117	COc1ccc(Cl)cc1NC(=O)CN1CCC(n2nnc3cc(C)ccc32)CC1	>57	i
118	C=CCn1c(SCC(=O)Nc2nc(C)cs2)nnc1C(CO)NC(=O)c1ccccc1 (stereo not drawn)	>57	i
119	CC(C)C(C(=O)Nc1ccc2c(c1)OCO2)N1C(=O)c2ccccc2C1=O (stereo not drawn)	nt	i
120	O=C(COc1ccc(Cl)cc1)Nc1ccccc1C(=O)NCc1ccco1	>57	i

Source: PubChem (National Center for Advancing Translational Sciences (NCATS))
